KCNQ2 block: KCNQ2 channel blockers in CHO-K1 cells – cell-based, FluxOR thallium flux, B-score, primary screen (AID 2156); O88943; B-score at 10 µM; actives 1.1% (n = 310,000); 20 min; hits give low values; only compounds with negative scores are shown here; some inactives read as strong as hits;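 active = fluorescence ratio B-score at most minus 3 library SDs, with starting brightness B-score within 2 library SDs, cut at about -5.5 in these data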
Target sequence (O88943 whole entry, looked up): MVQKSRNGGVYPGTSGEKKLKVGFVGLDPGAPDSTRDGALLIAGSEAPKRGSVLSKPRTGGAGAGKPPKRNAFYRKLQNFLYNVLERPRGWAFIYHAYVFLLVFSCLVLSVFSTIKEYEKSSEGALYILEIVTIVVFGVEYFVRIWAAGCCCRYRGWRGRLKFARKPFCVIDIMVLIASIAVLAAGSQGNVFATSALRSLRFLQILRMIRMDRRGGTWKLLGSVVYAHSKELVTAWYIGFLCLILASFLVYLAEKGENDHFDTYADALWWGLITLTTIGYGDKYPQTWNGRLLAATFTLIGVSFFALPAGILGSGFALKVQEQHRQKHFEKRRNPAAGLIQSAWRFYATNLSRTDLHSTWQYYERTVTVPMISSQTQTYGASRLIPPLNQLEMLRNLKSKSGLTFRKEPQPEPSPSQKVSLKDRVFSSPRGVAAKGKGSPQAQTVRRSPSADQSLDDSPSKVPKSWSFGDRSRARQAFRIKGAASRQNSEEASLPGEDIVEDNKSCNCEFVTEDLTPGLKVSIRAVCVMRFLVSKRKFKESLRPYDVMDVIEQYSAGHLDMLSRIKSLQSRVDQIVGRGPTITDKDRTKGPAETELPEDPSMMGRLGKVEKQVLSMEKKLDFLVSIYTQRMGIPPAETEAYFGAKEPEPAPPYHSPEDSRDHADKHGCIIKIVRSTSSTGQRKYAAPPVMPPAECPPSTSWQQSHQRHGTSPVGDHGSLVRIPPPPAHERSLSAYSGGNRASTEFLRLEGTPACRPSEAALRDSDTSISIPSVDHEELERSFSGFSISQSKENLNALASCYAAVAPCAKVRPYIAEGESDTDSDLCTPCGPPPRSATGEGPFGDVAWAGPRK
KCNQ2 block baseline: recorded beside KCNQ2 block, whose call it bears; B-score; measured here: initial fluorescence intensity artifact check;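 brightness before thallium and not channel activity; 0 = typical well and far values either way flag optical interference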
An asterisk follows results filed as active; i = inactive.

Value order – KCNQ2 block, KCNQ2 block baseline
(1) COc1ccc(/C=C/C(=O)OCn2c(SC)nnc(C)c2=O)cc1OC
    i, 1.89
(2) CCN(CC)Cc1nc2sc(C)c(C)c2c(=O)[nH]1
    i, 0.47
(3) CCOC(=O)C1CCN(C2=C(NS(=O)(=O)c3ccc(Cl)cc3)C(=O)c3ccccc3C2=O)CC1
    i, -1.71
(4) COC(=O)c1[nH]c2cccc(OC)c2c1NC(=O)CN1CCN(c2cccc(OC)c2)C(C)C1 (configuration not stated)
    i, -0.54
(5) Cc1nc(Cl)c(Cl)n1CCOc1ccccc1
    i, -0.99
(6) CC1CCC2(CC1)NC(=O)N(CC(=O)Nc1ccc3[nH]c(=O)[nH]c3c1)C2=O (configuration not stated)
    i, -0.65
(7) Cc1ccc2oc(=O)c3cnn(CC(=O)N(CCC(C)C)Cc4ccco4)c3c2c1
    i, -0.53
(8) CC(=O)Nc1c(N)c2ccccc2oc1=O
    i, 1.3
(9) CCCc1nnc(SCC(=O)N2CCCCC2C)n1CCOC (configuration not stated)
    i, -1.4
(10) COc1cc(/C=C2\C(=N)N3N=C(S(C)(=O)=O)SC3=NC2=O)ccc1OC(=O)c1cccs1
    i, 1.49
(11) Cc1ccc(NC(=O)c2ccc3c(c2)S(=O)(=O)c2ccccc2C3=O)cc1S(=O)(=O)N1CCOCC1
    i, 0.03
(12) CCCc1cc(Nc2ccccc2C)n2ncnc2n1
    i, 1.13
(13) Cc1ccc(C(=O)N/C(=C\c2ccc(-c3ccccc3[N+](=O)[O-])o2)C(=O)NCCN(C)C)cc1
    i, -0.09
(14) CC(C)C(C(=O)NCC1CCCO1)N(C(=O)CNS(=O)(=O)c1ccccc1)c1ccc(F)cc1 (configuration not stated)
    i, -0.02
(15) Cc1nc2nc(Cc3ccccc3)[nH]n2c(=O)c1Cl
    i, -0.11
(16) Clc1ccc(Nc2nc(-c3ccncc3)cs2)cc1
    i, 0.17
(17) Cc1ccc([N+](=O)[O-])cc1N/C=C1\CCCCC1=O
    i, -0.93
(18) COc1cc(NC(=O)CSc2nc3[nH]ncc3c(=O)n2-c2ccccc2C)cc(OC)c1OC
    i, 2.79
(19) O=C(COc1ccc2ccccc2c1)N/N=C/c1ccccn1
    i, -0.18
(20) COc1ccc(CC(=O)N(Cc2ccccc2)c2cccc(C)c2)cc1OC
    i, -0.94
(21) CCc1ccc(CNC(=O)C2CCCN(S(=O)(=O)N(CC)c3ccccc3)C2)cc1 (configuration not stated)
    i, -1.02
(22) CCCN1CCC(=O)N([C@H](CO)c2ccccc2)CC1
    i, 0.73
(23) CC(=O)c1c(C)nc(-c2ccc(Cl)cc2Cl)n1O
    i, 2.12
(24) Cc1cc(C)cc(Oc2ccc(NC(=O)C3CC=CCC3C(=O)O)cc2)c1 (configuration not stated)
    i, -2.22
(25) CCCCOC1(c2ccccc2)OC(=O)c2ccccc21 (configuration not stated)
    i, 0.03
(26) CCn1c(/C=C/c2cccc([N+](=O)[O-])c2)nc2ccccc2c1=O
    i, -1.68
(27) CN1CCN(c2ccc(S(=O)(=O)N3CCCCC3)cc2NC(=O)Cc2c(F)cccc2Cl)CC1
    i, -0.75
(28) CCOc1ccc(S(=O)(=O)N(C)c2ccc(OCC(=O)Nc3nccs3)cc2)cc1
    i, 0.76
(29) O=C(c1ccc(Cl)cc1)N1CCC(O)(CSc2ccccc2)CC1
    i, 1.87
(30) C=CCn1c(SCC(=O)OCc2ccccc2)nc2c1c(=O)n(C)c(=O)n2C
    i, -0.01
(31) C/C(=C1/SC(=S)N(CCC(=O)O)C1=O)c1ccc(O)cc1
    i, -0.55
(32) CCOc1cc(/C=N/NC(=O)COc2nc(C)cc(COC)c2C#N)ccc1O
    i, -2.54
(33) COc1ccccc1C(=O)O/N=C(\N)c1ccc(Cl)cc1
    i, 1.47
(34) COc1ccc(C(=O)C2CCCN(C(=O)c3ccccc3C(C)=O)C2)cc1F (configuration not stated)
    i, 0.35
(35) COCCNC(=O)Cn1cnc([N+](=O)[O-])n1
    i, -0.58
(36) COc1ccc(C(=O)Nc2nc(CC(=O)NCCc3ccccc3)cs2)cc1
    i, -2.68
(37) COc1c(C(=O)Nc2nccs2)ccc2ccccc12
    i, -0.21
(38) CC(C)(C)c1cc[n+](C2=C([O-])c3ccccc3C(=O)/C2=N\S(=O)(=O)c2cccs2)cc1
    i, -1.57
(39) CCOc1cc(/C=N/NS(=O)(=O)c2ccc(OC)cc2)ccc1OCCN1CCOCC1
    i, -0.65
(40) CC1(C)CC(=O)C=C(C(=O)NC2CCCc3c2cnn3-c2cc(F)cc(F)c2)O1 (configuration not stated)
    i, 0.53
(41) Nn1c(SCC(=O)N2CCN(S(=O)(=O)c3ccc(Cl)cc3)CC2)nnc1-c1cccs1
    i, 1.66
(42) CCCCCCSc1ccc([C@H]2N[C@@](Cc3ccccc3)(C(=O)OC)[C@H]3C(=O)N(C)C(=O)[C@@H]23)cc1
    i, -0.41
(43) COCc1ccc(C(=O)NC2CCCc3c2cnn3-c2ccc(C)c(C)c2)o1 (configuration not stated)
    i, 1.21
(44) Cc1nnc(Nc2ccccc2F)s1
    i, -0.95
(45) Cc1nnc(SCC(=O)Nc2cc(-c3cc(C)c(C)cc3C)nn2-c2ccccc2)s1
    i, -0.14
(46) CN1C(=O)c2ccc(NC(=O)c3c(F)c(F)c(F)c(F)c3F)cc2C1=O
    i, -2.36
(47) Cc1ccc(C)c(-c2nnc(NC(=O)Cc3ccc(F)cc3)o2)c1
    i, -0.02
(48) O=C(NC1CCCCCC1)c1ccco1
    i, 0.71
(49) CC1(C)CC(C2N3CC4(C)CN2CC(C)(C3)C4=O)CCO1 (configuration not stated)
    i, 0.95
(50) COc1ccc(CNc2nc(-c3ccccc3)nc3ccccc23)cc1OC
    i, 1.32
(51) CCCCn1c(-c2nn(C)c(C)c2Cl)n[nH]c1=S
    i, 2.92
(52) Cc1ccccc1NC(=O)C1C2CC/C=C\CCC21 (configuration not stated)
    i, -0.19
(53) CCCCCc1c(C)[nH]c2nc3ccccc3n2c1=O
    i, 0.59
(54) COCCN(C(=O)c1snc(C(N)=O)c1N)C(C(=O)NC1CCCCC1)c1ccc(F)cc1 (configuration not stated)
    i, -0.4
(55) O=C(COC(=O)c1ccc2c(c1)C(=O)N(Cc1ccco1)C2=O)NCC(F)(F)F
    i, 0.24
(56) O=C(NCCS(=O)(=O)N1CCN(c2ccccc2F)CC1)c1ccc(Br)cc1
    i, -1.12
(57) CCC(OC(=O)CN1C(=O)c2ccccc2C1=O)C(=O)NC1CCCC1 (configuration not stated)
    i, 0.18
(58) COc1ccc2c(c1)c(N=O)c(O)n2C
    i, 2.76
(59) CN1CCN(C(=O)c2cnn(-c3ccccc3)c2NC(=O)c2ccc(Br)cc2)CC1
    i, -0.26
(60) COCCCN(C(=O)c1cc2c(s1)CCCCC2)c1c(N)n(Cc2ccccc2)c(=O)[nH]c1=O
    i, 0.63

Carrying on.
Value order – KCNQ2 block, KCNQ2 block baseline
(61) O=C(CCC(=O)Nc1ccc(Br)cc1)N/N=C/c1cc([N+](=O)[O-])ccc1O
    i, 1.36
(62) CN(CC(=O)NNC(=O)c1cccnc1)S(=O)(=O)c1cc(Cl)ccc1Cl
    i, 1.4
(63) Cc1ccc(C2(C(F)(F)F)NC(=O)N3CCCN=C3S2)cc1 (configuration not stated)
    i, 1.13
(64) O=C(CN1CCN(Cc2ccccc2Cl)CC1)N/N=C/c1ccccn1
    i, -1.46
(65) O=C1C2C3CCC(CC3)C2C(=O)N1c1ccccc1 (configuration not stated)
    i, -1.45
(66) CC(=O)NC1=NC(=O)/C(=C/c2cc(C)n(-c3cccc(C(=O)O)c3)c2C)S1
    i, 1.9
(67) COc1cccc(C2Nc3c(F)cc(Br)cc3C3C=CCC32)c1OC (configuration not stated)
    i, -1.77
(68) Cc1csc(=O)n1CC(=O)OCC(=O)NCc1ccc(Cl)cc1Cl
    i, -1.69
(69) O=C(NCc1ccc2c(c1)OCO2)C1CC(=O)N(CCc2ccc(F)cc2)C1 (configuration not stated)
    i, -0.35
(70) Cc1nc2scc(-c3cccs3)c2c(=O)n1N
    i, 1.03
(71) CC(C)Cn1c(=O)c2sccc2n2c(CCCC(=O)N3CCC(N4CCCCC4)CC3)nnc12
    i, -0.02
(72) COc1ccc(C(=O)Nc2ccc(NC(=O)C3CC3)nc2)cc1
    i, -0.44
(73) Cc1ccc2c(c1)-c1c(ssc1=S)C(C)(C)N2C(=O)CN1C(=O)c2ccccc2C1=O
    i, -0.35
(74) CCC(C)NC(=O)C1c2ccccc2C(=O)N(c2ccc(OC)cc2)C1c1ccc(OC)cc1 (configuration not stated)
    i, 0.09
(75) CC(C)(C)C1=CC(=O)C(=O)C(C(C)(C)C)=C1
    i, 0.14
(76) CC(c1ccccc1)N1C(=O)c2ccccc2C1(O)Cc1ccccc1 (configuration not stated)
    i, 1.38
(77) CCN(CC)S(=O)(=O)c1ccc2c(c1)c(=O)c(C(=O)NCCc1ccc(OC)c(OC)c1)cn2C
    i, 0.96
(78) Cc1[nH]nc2c1C(c1cccc(OC(=O)N3CCOCC3)c1)C(C#N)=C(N)O2 (configuration not stated)
    i, -1.82
(79) COc1cc(NC(=O)c2noc3c2CCCC3)c(OC)cc1Cl
    i, 0.44
(80) COc1ccc(OC)c(NC(=O)CSc2nnc(C3CCCCC3)n2-c2ccccc2)c1
    i, 0.68
(81) COc1ccc(NS(=O)(=O)c2cccc(C(=O)N/N=C/c3cn(-c4ccccc4)nc3-c3ccc(OC)cc3)c2)cc1
    i, -1.61
(82) CSc1ncc2ncn(C3OC(CO)C(O)C3O)c2n1 (configuration not stated)
    i, 0.15
(83) O=C(c1ccccc1)c1sc(N2CCCCCC2)nc1-c1ccccc1
    -6.17*, -1.41*
(84) CC(=O)c1cccc(NC(=O)C=C(C)C)c1
    i, 1.11
(85) CCOC(=O)N1CCN(c2nc(-c3cccs3)nc3ccccc23)CC1
    i, -0.62
(86) O=C(Nc1cccc(Cl)c1)c1ccc(=O)[nH]n1
    i, -0.1
(87) O=C1NC(=O)C2C1C(c1ccccc1)N1C3C(=O)NC(=O)C3C(c3ccccc3)N21 (configuration not stated)
    i, 0.7
(88) Cc1ccc(N2C(=O)c3cccc4c(N5CCN(C)CC5)ccc(c34)C2=O)c2cccnc12
    i, 10.2
(89) CCOC(=O)C1(CCCc2ccccc2)CCN(C(=O)CCn2cnnn2)CC1
    i, 0.11
(90) CCCOC(=O)NC(CC)COC(=O)Nc1cccc(C)c1C (configuration not stated)
    i, 1.13
(91) COc1ccccc1/C=N/OCC(=O)NCc1ccc2c(c1)OCO2
    i, 2.48
(92) Cc1cc(C)c[n+](CC(=O)c2cc3ccccc3oc2=O)c1
    i, -1.29
(93) Cc1ccccc1OC(C)C(=O)NCCC1=CCCCC1 (configuration not stated)
    -5.93*, 0.15*
(94) CN1C(=O)Cc2cc(S(=O)(=O)NCc3c(F)cccc3Cl)ccc21
    i, -0.58
(95) Cc1ccccc1C(=O)N=c1c(C#N)cc2c(=O)n3cccc(C)c3nc2n1Cc1ccco1
    i, 0.44
(96) Cc1cc(C)cc(-n2ncc3c2CCCC3NC(=O)c2ccccc2N2CCOCC2)c1 (configuration not stated)
    i, -0.02
(97) CC1CN(C(=O)c2cccn(Cc3c(Cl)cccc3Cl)c2=O)CC(C)O1 (configuration not stated)
    i, 0.93
(98) CC(=O)N(C1=C(Cl)C(=O)c2ccccc2C1=O)C1CCCCC1
    -5.65*, -5.26*
(99) Nc1ccc(Nc2ccccc2)cc1
    i, -1.13
(100) O=C1CCC(C(=O)N2CCSCC2)CN1Cc1cccc(C(F)(F)F)c1 (configuration not stated)
    i, 0.39
(101) CCN1CCN(c2cc(C)c3cc(NC(=S)N4CC(C)CC(C)C4)ccc3n2)CC1 (configuration not stated)
    i, 2.29
(102) CCCn1nc(NS(=O)(=O)c2ccccc2[N+](=O)[O-])c2cc3ccccc3nc21
    i, -0.08
(103) CCOC(=O)C1=C(NC(=S)NC(=O)c2ccccc2)c2ccccc2CC1(C)CC (configuration not stated)
    i, 1.01
(104) COc1ccc(C(=O)N2CCC(C(=O)N3CCN(c4ccc(OC)cc4)CC3)CC2)cc1
    i, -0.01
(105) COc1ccc(S(=O)(=O)N2CCOC23CCN(C(=O)c2c(F)cccc2Cl)CC3)cc1
    i, -0.37
(106) CCCc1cc(C(=O)Nc2cc(Cl)ccc2O)no1
    i, -0.06
(107) Cc1ccc(S(=O)(=O)N(C)CC(=O)Nc2ccccc2)cc1
    i, -0.02
(108) CC/C(=N\NC(=O)c1cccnc1)c1ccc2c(c1)OCCO2
    i, -0.02
(109) O=C(c1cccc(NS(=O)(=O)c2cccc(C(F)(F)F)c2)c1)N1CCOCC1
    i, 0.98
(110) C=CCc1c(C)[nH]c(=O)[nH]c1=O
    i, -1.04

Bioassay records as filed in PubChem BioAssay.

This is a subset. The share of hits here may be higher or lower than overall.
